Screens: PubChem BioAssay, National Center for Advancing Translational Sciences (NCATS)
VDR inh: blocks the human vitamin D receptor; P11473; VDR-SRC2-3 peptide fluorescence polarization, 2 h; actives 0.93% (n = 400,000); Potency, µM, inactives show max response, negative = inhibition, hits mostly inhibitors; AID 504847; active = well fitted inhibition curve with a large enough effect; inconclusive = small, poorly fitted or top-dose-only effect, or another doubt; inactive = no such curve, though single readings can be large or run the other way; also: series mostly up to about 120 µM
Target sequence (P11473 whole entry, looked up): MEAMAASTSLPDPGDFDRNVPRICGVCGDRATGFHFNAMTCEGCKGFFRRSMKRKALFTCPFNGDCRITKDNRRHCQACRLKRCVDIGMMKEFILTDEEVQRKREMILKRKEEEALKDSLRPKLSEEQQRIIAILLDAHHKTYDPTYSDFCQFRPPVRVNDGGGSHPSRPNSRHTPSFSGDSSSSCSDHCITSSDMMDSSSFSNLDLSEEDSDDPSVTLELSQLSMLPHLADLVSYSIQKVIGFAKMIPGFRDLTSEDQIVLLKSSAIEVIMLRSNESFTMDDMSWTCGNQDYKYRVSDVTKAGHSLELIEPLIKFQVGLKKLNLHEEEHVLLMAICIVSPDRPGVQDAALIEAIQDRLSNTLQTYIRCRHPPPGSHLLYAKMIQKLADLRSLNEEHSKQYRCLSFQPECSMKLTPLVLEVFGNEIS
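Fluorescence polarization assay measuring small-molecule disruption of VDR binding to the coregulator peptide SRC2-3. Compounds were pin-transferred (23 nl) into the reagent mix and incubated 2 h at room temperature before reading.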
Active calls of the source: *; ? = inconclusive; & = joins results of further samples; [ ] = another dose, or the depositor's remark. % is scaled to controls: 0 for no effect and ±100 for the full control effect; potency is read from the fitted curve at half-maximal effect. A portion of the library; count on the stated rates, not on these rows.

SMILES | VDR inh
Cc1ccc(Cn2c(SCc3ccc(C(=O)N4CCCCC4)cc3)nc3ccncc32)cc1 | 4%
COc1ccc(CCNc2nc(-c3ccc(OC)c(OC)c3)cc(C(F)(F)F)n2)cc1OC | 5%
CCOc1ccc(N(CC)S(=O)(=O)c2cc(Br)cc3c2N(C(C)=O)C(C)C3)cc1 (stereo not drawn) | -2%
COc1ccc(C(CC(=O)NCC(OC)OC)NS(=O)(=O)c2ccc(Cl)cc2)cc1 (stereo not drawn) | 10%
COc1ccccc1NC(=O)COC(=O)C1CC2C=CC1C2 (stereo not drawn) | -17%
CCN(Cc1ccccc1)C(=O)c1ccc(CS(=O)c2ccccc2C)o1 (stereo not drawn) | 10%
CCCN1Cc2cccc(C(=O)NCc3cccs3)c2C1=O | -29%
COc1cc(/C=C2\SC(=S)N(CC(=O)O)C2=O)ccc1OC(=O)c1ccco1 | -28%
O=C(CCCCCN1C(=O)c2ccccc2C1=O)Nc1ccc(C(=O)O)cc1 | -15%
CCC(=O)Nc1ccc(C(=O)N/N=C/c2ccccc2[N+](=O)[O-])cc1 | 12%
CN(C)S(=O)(=O)c1cccc(COC(=O)c2cnccn2)c1 | 8%
CC(C)NC(=O)N(C)C[C@H]1Oc2c(NS(=O)(=O)c3ccc(F)cc3)cccc2C(=O)N([C@H](C)CO)C[C@@H]1C | 4%
Cc1c(C(=O)NCc2cccc(Cl)c2)sc2nc3n(c(=O)c12)CCCC3 | 6%
O=C(CCS(=O)(=O)c1cc2c(cc1Cl)NC(=O)CO2)NCc1ccc(F)cc1 | -1%
O=C(Cn1c(=O)n(Cc2ccco2)c(=O)c2c3c(sc21)CCCCC3)c1ccccc1 | -5%
COc1ccc(S(=O)(=O)N2CCCCC2)cc1-n1cnnn1 | -4%
COc1ccc(-c2csc(N(Cc3ccco3)C(=O)c3cccs3)n2)cc1 | -11%
CC1(C)CC(NC(=S)Nc2ccc([N+](=O)[O-])cc2)CC(C)(C)N1 | -14%
Cc1nnc(NC(=O)C2CCCN2C(=O)Nc2ccccc2)s1 (stereo not drawn) | 15%
COC(=O)c1ccc(OC)c(Cn2c(=O)n(-c3ccc(C)cc3)c(=O)c3c2cnn3C)c1 | -7%
CC1C(=O)C(C)C(c2ccc(O)cc2)NC1c1ccc(O)cc1 (stereo not drawn) | 7%
CN(C)CCCN(C(=O)COc1ccc(Cl)cc1)c1nc2c(F)cccc2s1 | 0%
Cc1ccc(-c2nc(CSc3nncn4c3cc3occc34)c(C)o2)cc1 | -8%
O=C(Nc1ccc2oc(-c3ccncc3)nc2c1)c1ccc2c(c1)OCCO2 | -3%
O=c1[nH]c2ccccc2cc1CN(Cc1ccco1)S(=O)(=O)c1ccc(F)cc1 | -29%

A draw from above in order of molecular weight, lowest first:
SMILES | VDR inh
CC1C(=O)C(C)C(c2ccc(O)cc2)NC1c1ccc(O)cc1 (stereo not drawn) | 7%
CN(C)CCCN(C(=O)COc1ccc(Cl)cc1)c1nc2c(F)cccc2s1 | 0%
Cc1ccc(Cn2c(SCc3ccc(C(=O)N4CCCCC4)cc3)nc3ccncc32)cc1 | 4%

Next section:
SMILES | VDR inh
Cc1ccnc(NC(=O)CNC(=O)C23CC4CC(CC(C4)C2)C3)c1 | -5%
CCN(CC)C(=O)Cn1cc([N+](=O)[O-])cc1[N+](=O)[O-] | 14%
Cc1ccc(OCC(=O)Nc2ccccc2[N+](=O)[O-])c(Br)c1 | 0%
CCC(C)NC(=O)/C=C/c1ccc(S(=O)(=O)NCc2ccco2)cc1 (stereo not drawn) | -7%
CCN(Cc1ccccc1)C(=O)Cn1c(C(C)O)nc2ccccc21 (stereo not drawn) | -2%
Cc1nn(CCc2nn[nH]n2)c2nc(-c3ccccc3)cc(C(F)(F)F)c12 | 1%
O=C(COC(=O)c1ccccc1O)NCCC1=CCCCC1 | 2%
COc1cc(CCC(=O)NCCc2ccc(F)cc2)cc(OC)c1OC | -17%
CN(/N=C/c1ccc(Br)o1)C1=NS(=O)(=O)c2ccccc21 | -11%
O=C(Nc1ccc(C(=O)N2CCOCC2)cc1)Nc1cccc2ccccc12 | -1%
CCOc1ccc(/C=C2/SC(=S)N(CCC(=O)Nc3ccc(C(=O)O)cc3)C2=O)cc1 | 11%
Cc1cc(NC(=O)c2ccc(Cl)cc2)c(C(C)C)cc1O | 0%
Cc1ccc(C(=O)c2sc(Nc3ccccc3)c(S(=O)(=O)c3ccccc3)c2N)c(C)c1 | 12%
O=C(CSc1nnc(C2CC2)n1-c1ccccc1)N1CCCC1 | 10%
CC(=O)N1c2ccc(S(=O)(=O)N3CCC(C(=O)NCc4ccccc4Cl)CC3)cc2CC1C (stereo not drawn) | -3%
COc1ccc(N2CCN(C(=O)COC(=O)CCOc3cc(C)ccc3C)CC2)cc1 | -15%
Cc1noc(C)c1C(=O)OCC(=O)NCCc1ccccc1 | -13%
CC(C)CN1C(=O)c2ccc(C(=O)Nc3ccncc3)cc2C1=O | 7%
COc1ccc(C2CC2/C(C)=N/OC(=O)C2CC2)cc1 (stereo not drawn) | 19%
Cn1c(CNC(=O)c2ccc3c(c2)OCO3)nnc1SCC(=O)Nc1ccc(F)cc1 | -26%
CCc1ccc(NC(=O)CSc2nc3ccccc3nc2N2CCCC2)cc1 | -4%
CC(C)C(C(=O)NC1CCCCC1)N(CC1CCCO1)C(=O)CNS(=O)(=O)c1ccc(F)cc1 (stereo not drawn) | -2%
COC(=O)C1CN(C(=O)COc2cc(C)c(Cl)c(C)c2)c2ccccc2O1 (stereo not drawn) | -7%
CC(C)n1cc(/C=C2/NC(=O)N(c3cccc(Cl)c3)C2=O)c2ccccc21 | -3%
NC(=O)C1CCN(c2nc(-c3ccccc3C(F)(F)F)cs2)CC1 | -3%

Additional entries.
SMILES | VDR inh
COc1ccccc1N(CC(=O)Nc1ccccc1C(F)(F)F)S(=O)(=O)c1cccs1 | -17%
COc1ccc(CCNC(=O)C(=O)N/N=C/c2cccs2)cc1OC | -24%
CC1CCCN(C(=O)c2ccc(S(=O)(=O)N3CCC(c4nc5ccccc5s4)CC3)cc2)C1 (stereo not drawn) | -5%
CCc1nnc(N/N=C/c2ccc(N3CCC(C)CC3)c([N+](=O)[O-])c2)n1N | 18µM*
CCC1(CC)C(=O)NC(=S)N=C1N | 8%
CC(C)Cc1nc2c(nnn2Cc2ccccc2F)c(=O)[nH]1 | -14%
C=CCn1c(SCC(=O)c2ccc(F)cc2)nnc1-c1ccc2c(c1)OCO2 | -5%
CCOc1cc(C(=O)Nc2ccc(N3CCN(S(C)(=O)=O)CC3)cc2)cc(OCC)c1OCC | 9%
N=c1oc2ccccc2cc1C(=O)Nc1cccc(F)c1 | 4%
CC(C)OCCCN1CN(S(=O)(=O)c2cccs2)c2nc3ccccc3nc21 | -10%
Cc1c(C(=O)N2CCN(Cc3cccs3)CC2)oc2ccccc12 | -10%
Cc1cccc(C)c1NC(=O)Cn1c(=O)n(Cc2ccco2)c(=O)c2ccc(C(=O)NC3CCCC3)cc21 | -6%
O=C(Nc1ccc([N+](=O)[O-])cc1)c1ccccc1F | -7%
CCOc1ccc(S(=O)(=O)N/N=C2/CCCC(=O)C2)cc1 | 23%
COc1ccc(CCN(C)C(=O)CNC(=O)Cc2cccc3ccccc23)cc1OC | -16%
CC(Sc1ccccn1)C(=O)Nc1ccc2c(c1)OCO2 (stereo not drawn) | -3%
Cc1cccc2c1OCC/C2=N\NC(=O)COc1ccccc1 | 13%
COc1cc(CNc2ccc(N3CCOCC3)cc2)cc(Br)c1OC | -13%
COc1ccccc1CC(=O)Nc1ccc2c(C)cc(=O)oc2c1 | -8%
Cn1c(=O)oc2cc(S(=O)(=O)N3CCCC(C(=O)NCc4ccccc4Cl)C3)ccc21 (stereo not drawn) | -17%
COCCN=C1OC(=O)N2C(=O)C3=C4[C@@H](C[C@H]5C(=O)N(c6ccccc6)C(=O)[C@H]5[C@H]4[C@@]12Cc1ccccc1)[C@H]1C(=O)N(c2ccccc2)C(=O)[C@H]1[C@H]3C | 4%
COc1ccc(C(=O)Nc2ccc(NC(=O)Cc3ccccc3)cn2)cc1 | -12%
COc1ccc(C(=O)NCc2nc(-c3cccc(C)c3)no2)cc1OC | -1%
O=C(COc1ccc(F)cc1)Nc1ccc2c(c1)OCCO2 | 37%[activator]
CCCNC(=O)COc1cccc(C(=O)NCc2ccccc2)c1 | 12%

Copied from the list:
C=CCn1c(SCC(=O)c2ccc(F)cc2)nnc1-c1ccc2c(c1)OCO2 @ VDR inh = -5%
Cn1c(=O)oc2cc(S(=O)(=O)N3CCCC(C(=O)NCc4ccccc4Cl)C3)ccc21 (stereo not drawn) @ VDR inh = -17%

The listing continues.
SMILES | VDR inh
CC(C)C(=O)N(Cc1cc(=O)[nH]c2ccccc12)c1ccccc1 | -1%
Cc1ccc(CNC(=O)CN2CCN(Cc3ccc(F)cc3Cl)C2=O)cc1 | -5%
COc1ccc(-c2cc3ccc(O)c(CN4CCN(C)CC4)c3oc2=O)cc1OC | 3%
CCCCN(C(=O)CNC(=O)c1ccco1)C(C(=O)NC1CCCCC1)c1cccnc1 (stereo not drawn) | 11%
CCNc1nc(NCC)n2c(SCC(=O)Nc3ccccc3C(F)(F)F)nnc2n1 | -11%
CCOc1ccc(CCNC(=O)Cn2ccc3cc(S(=O)(=O)N4CCCCC4)ccc32)cc1 | 1%
c1coc(-c2nc(-c3ccco3)c(-c3ccco3)nc2-c2ccco2)c1 | 40µM*
O=C(Nc1ccccc1Oc1ccccc1)c1cccs1 | 4%
CCOc1ccc(NC(=NCc2ccc3c(c2)OCO3)SC2CC(=O)N(c3ccc(C(=O)O)cc3)C2=O)cc1 (stereo not drawn) | -3%
Cc1ccc2c(Cl)cc(Cl)c(O)c2n1 | -12%&5%&0%
Cc1ccc(Nc2nnc(SCC(=O)NCCN3C(=O)CSC3=O)s2)cc1C | -15%
Clc1ccc2nc(-c3cccc(SC4CCCCC4)c3)c(NCc3ccccc3)n2c1 | -22%
O=C(NCCc1ccc(C(F)(F)F)cc1)C1CC(=O)N(Cc2ccccc2)C1 (stereo not drawn) | -3%
O=C(CCc1c[nH]c2ccccc12)N1CCN(c2ccc(F)cc2)CC1 | -12%
CC(C)NC(=O)CSc1nnc(-c2ccc(C(C)(C)C)cc2)n1C | 29%
CCOC(=O)c1cc(-c2ccccc2)n(CCCC(=O)Nc2ccc(C(C)C)cc2)c1C | 8%
COc1cccc(OCCCOc2ccccc2C(C)C)c1 | 5%
Cc1ccc2[nH]c(C(=O)NN=C3CCCCC3)c(-c3ccccc3)c2c1 | ?
COc1ccc(CCNC(=O)c2cc(=O)c3ccc(C)cc3o2)cc1OC | -3%&7%
OC(CNCC1(N2CCCCC2)CCCCC1)COc1ccc(Cl)cc1Cl (stereo not drawn) | -10%
Cc1ccccc1-n1c(C)cc(/C=N/Nc2ccc([N+](=O)[O-])cn2)c1C | -8%
O=C(c1ccccc1Sc1c(Cl)cccc1[N+](=O)[O-])N1CCOCC1 | -13%
COc1ccc(N2CCN(S(=O)(=O)c3ccc(OC)cc3)CC2)cc1 | 3%
COc1cc(/C=C2/NC(=O)N(Cc3ccccc3F)C2=O)ccc1O | 3%
COc1ccccc1-c1nnc2sc(COc3ccccc3)nn12 | 1%

Reformatted: entries from further up
Compound: Cc1ccc(CNC(=O)CN2CCN(Cc3ccc(F)cc3Cl)C2=O)cc1
  VDR inh: -5%
Compound: COc1ccc(-c2cc3ccc(O)c(CN4CCN(C)CC4)c3oc2=O)cc1OC
  VDR inh: 3%
Compound: CCCCN(C(=O)CNC(=O)c1ccco1)C(C(=O)NC1CCCCC1)c1cccnc1 (stereo not drawn)
  VDR inh: 11%
Compound: CCNc1nc(NCC)n2c(SCC(=O)Nc3ccccc3C(F)(F)F)nnc2n1
  VDR inh: -11%

Structures above shown as hits in VDR inh:
SMILES | VDR inh
CCc1nnc(N/N=C/c2ccc(N3CCC(C)CC3)c([N+](=O)[O-])c2)n1N | 18µM*
c1coc(-c2nc(-c3ccco3)c(-c3ccco3)nc2-c2ccco2)c1 | 40µM*

More compounds.
SMILES | VDR inh
O=C(O)c1[nH]c2ccc(Cl)cc2c1CC(=O)N1CCN(c2ccccc2)CC1 | -9%
COc1ccc(C(=O)NC(=S)NCc2ccco2)cc1OC | 14%
CCOc1ncccc1C(=O)Nc1ccc2c(c1)OCO2 | -19%
COc1ccc(CCNC(=O)CN2C(=O)COc3ccc(S(=O)(=O)N4CCOCC4)cc32)cc1OC | -15%
O=C(O)c1ccc(NC2=C(Cl)C(=O)c3ccccc3C2=O)cc1 | ?
CN(Cc1c(C(=O)N/N=C/c2ccc(O)cc2)nnn1-c1nonc1N)C1CCCCC1 | 7%
O=c1c2ccccc2c(-c2ccccc2)nn1Cc1ccc(Cl)cc1 | -7%
CCOC(=O)c1ccc(NC(=O)c2nc[nH]c2C(=O)N(C)Cc2ccccc2)cc1 | 10%
CN(Cc1ccccc1)C(=O)[C@H]1CCC(=O)N1Cc1ccco1 | 0%
Cc1cccn2cc(CCNS(=O)(=O)c3cccc([N+](=O)[O-])c3)nc12 | 10%
COc1ccc(C2=NN(C(C)=O)C(c3cccs3)C2)cc1OC (stereo not drawn) | -6%
Cc1ccccc1-n1c(C)nnc1SCC(=O)NNC(=O)c1ccccc1 | -23%
CCn1c(SCC(=O)O)nnc1-c1ccccc1 | 5%
CCN(CC)S(=O)(=O)c1ccc(O)c(C(=O)OCC(=O)Nc2ccc(OC(F)(F)F)cc2)c1 | 4%
CCC(=O)NC1=C(Cl)C(=O)C(NC(=O)CC)=C(Cl)C1=O | 14µM*
COC(/C=C/Nc1ccc(Br)cc1)=C(C#N)C#N | -12%
O=C(O)c1ccccc1C(=O)NCc1ccccc1 | 0%
Cn1c(O)c(N=NC(=O)Cc2c[nH]c3ccccc23)c2ccccc21 | -9%
COc1ccc(S(=O)(=O)N2CCN(C(=O)[C@H](Cc3ccccc3)NC(=O)c3ccco3)CC2)cc1 | 0%
O=C1C(Cl)=C(NCc2ccco2)C(=O)c2ccccc21 | ?
COC(=O)C1CN(Cc2ccccc2)C(=O)C1=O (stereo not drawn) | -6%
